Env fusion inh: blocks HIV Env-driven cell-cell fusion. HeLa-JRFL Env/CEM21 cell fusion, luciferase. inhibition, % at 12.3 µM. 360,000 compounds, 1.1% hits. AID 651610;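 active = mean replicate inhibition score of at least 50 and every replicate individually at or above 50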;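 note: 0% = plate neutral controls and 100% = maraviroc near 300 nM; one replicate is shown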
eIF4H inh: inhibitors of RNA binding by human eIF4H; Q15056; eIF4H fluorescence polarization binding assay; inhibition, % at 35 µM; 290,000 compounds, 0.94% hits; AID 2012;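 active = 50% or more with normal probe brightness, or confirmed in later tests; about a fifth of its hits are not listed in these tables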;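 note: calls also rest on retests at 20 µM and on dose response follow-up; 0% = protein and probe with vehicle and 100% = probe without protein; strong numbers were not always called active; many hits fall short of the cut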
Yeast UUG start: alters start codon recognition fidelity in yeast; activity score, % at 18.7 µM; 350,000 compounds, 0.13% hits; S. cerevisiae UUG-firefly luciferase reporter, luminescence/redox ratio; AID 602363;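 active = replicate mean at a twofold rise or more, about +100% in these data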;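 note: firefly luciferase made from a UUG start codon reports start codon fidelity; reporter light over untreated wells divided by growth signal over untreated wells; some hits fall short of that in this replicate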
Rce1 inhib: inhibitors of yeast Ras-converting enzyme; Q03530; 290,000 compounds, 0.27% hits; calls only; yeast membranes, quenched prenylated peptide cleavage fluorescence;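 active = fall in fluorescence gain of 50% or more versus controls, with final raw signal at or below 3038400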;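 note: plate controls were neutral control wells for no effect and wells lacking membranes for full effect; tested at 10 µM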
Target sequence (Q03530 whole entry, looked up): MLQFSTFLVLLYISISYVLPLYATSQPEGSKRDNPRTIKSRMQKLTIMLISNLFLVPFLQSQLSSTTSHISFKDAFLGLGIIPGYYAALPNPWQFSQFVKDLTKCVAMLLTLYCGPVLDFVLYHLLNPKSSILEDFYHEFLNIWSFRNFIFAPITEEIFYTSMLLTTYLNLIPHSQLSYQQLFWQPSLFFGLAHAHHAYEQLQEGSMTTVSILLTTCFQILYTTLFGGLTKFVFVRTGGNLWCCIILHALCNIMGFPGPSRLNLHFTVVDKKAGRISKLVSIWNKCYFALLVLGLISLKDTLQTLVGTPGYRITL
PABP polyA inh: blocks human PABP binding to poly(A) RNA | P11940 | fluorescence polarization | inhibition, % at 35 µM | 290,000 compounds, 1% hits | AID 2014;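 active = 50% or more with normal probe brightness, or confirmed in later tests; about a fifth of its hits are not listed in these tables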;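 note: calls also rest on retests at 20 µM and on dose response follow-up; controls were probe without protein and protein plus probe with vehicle; some compounds called inactive have numbers as strong as hits; many hits fall short of the cut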
MT1-MMP act inh: blocks activation of human MT1-MMP; GFP/RFP ratio change, % at 20 µM; P50281; HT1080 RFP-PRO-GFP cells, GFP/RFP ratio fluorescence, overnight; percent of plate control window, DMSO zero; 360,000 compounds, 0.061% hits;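 active = GFP/RFP ratio change of at least 30% with cell ATP level not reduced by more than half and red fluorescence within 50% of control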; note: strong numbers were not always called active
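Assay system: HT1080 RFP-PRO-GFP cells | Dosing: 20 µM single dose, 1% DMSO | Incubation: Cells overnight before dosing, compound overnight, 37 °C, 5% CO2 | Evaluation: GFP/RFP fluorescence ratio | Control set: DMSO-only wells and HT1080 RFP-L50D-GFP cell wells as references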
CSC inhib: blocks cancer stem cells. cancer stem cell-like cells viability, luminescence. inhibition, % at 7.5 µM. 300,000 compounds, 1.1% hits. AID 2717;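 active = mean at 75% or more and at least half the replicates too; tested in HMLE shEcad cells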;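 note: 0% = median of negative and 100% = median of positive control wells; the first replicate is given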
MT1-MMP act inh RFP: recorded beside MT1-MMP act inh, whose call it bears; RFP signal change, %; measured here: RFP expression control read;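 0 = vehicle wells; hits needed this value within 50% of zero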
Starred values were filed as active, the others as inactive; & = joins results of further samples.

Screening Cc1ccc(S(=O)(=O)N2CCOCC2)cc1C(=O)Nc1nc2ccccc2[nH]1 returned Env fusion inh 0, eIF4H inh 14, Rce1 inhib inactive, PABP polyA inh -5, MT1-MMP act inh 2, CSC inhib 1 and MT1-MMP act inh RFP 3.
CCN(CC)c1ccc(/C=N/NC(=S)NCc2ccc(OC)cc2)cc1 was read as Env fusion inh -105, eIF4H inh -3, Rce1 inhib active, PABP polyA inh -10, MT1-MMP act inh 1, CSC inhib 30 and MT1-MMP act inh RFP 2.
For CC1(C)Cc2cccc(OCC(=O)OCC(=O)Nc3cccc(S(N)(=O)=O)c3)c2O1 the results were Env fusion inh -32, eIF4H inh 2, Rce1 inhib inactive, PABP polyA inh 4, MT1-MMP act inh -7, CSC inhib -10 and MT1-MMP act inh RFP -3.
O=C(Nc1ccc2ccccc2c1)c1cn(-c2ccccc2)nc1-c1cccs1 was read as Env fusion inh -63, eIF4H inh -10, Yeast UUG start -3, Rce1 inhib inactive, PABP polyA inh -13, MT1-MMP act inh -5, CSC inhib 40 and MT1-MMP act inh RFP -8.
`COc1cc(C=O)ccc1OC(=O)N1CCOCC1` gave Env fusion inh 9, eIF4H inh -4, Yeast UUG start -4, Rce1 inhib inactive, PABP polyA inh -2, MT1-MMP act inh 2, CSC inhib -7 and MT1-MMP act inh RFP 4.
`CSc1nc(-c2ccco2)nn1C(=O)c1ccccc1` gave eIF4H inh 12, Rce1 inhib inactive, PABP polyA inh -9, MT1-MMP act inh 0, CSC inhib -5 and MT1-MMP act inh RFP 8.
`Cc1cccc(-n2c(SCC(=O)c3c(N)n(C4CC4)c(=O)[nH]c3=O)nnc2N2CCOCC2)c1` gave Env fusion inh 6, Yeast UUG start 0, MT1-MMP act inh 1 and MT1-MMP act inh RFP 1.
For Cc1cc(C)cc(-n2cnc3cc(C(=O)O)ccc32)c1 the results were eIF4H inh 9, Yeast UUG start -26, Rce1 inhib inactive, PABP polyA inh 10, MT1-MMP act inh 2 and MT1-MMP act inh RFP -3.
Screening CC(C)C(N)c1csc(Nc2ccc(C(=O)NCCCO)cn2)n1 (stereo not given) returned Env fusion inh 38, Yeast UUG start -13, MT1-MMP act inh 3 and MT1-MMP act inh RFP 6.
Cc1cc(C)nc(SC2CCCCC2NS(=O)(=O)c2ccccc2)n1 (stereo not given) was read as Env fusion inh 0, eIF4H inh -3, Rce1 inhib inactive, PABP polyA inh 15, MT1-MMP act inh 3 and MT1-MMP act inh RFP 6.
For Cc1onc(-c2ccccc2)c1C(=O)Nc1ccc(Br)cc1Cl the results were Env fusion inh 86*, eIF4H inh -2, Yeast UUG start -11, Rce1 inhib inactive, PABP polyA inh 8, MT1-MMP act inh -2, CSC inhib 22 and MT1-MMP act inh RFP 0.
`Cc1cccc(NS(=O)(=O)c2ccc3[nH]c(=O)cc(C(=O)O)c3c2)c1` gave Env fusion inh -1, eIF4H inh -11, Rce1 inhib inactive, PABP polyA inh 1, MT1-MMP act inh 0, CSC inhib -8 and MT1-MMP act inh RFP 6.
`Cc1cccc(NC(=S)NC2CCCC2)c1C` gave Env fusion inh -62, eIF4H inh -8, Yeast UUG start -24, Rce1 inhib inactive, PABP polyA inh 6, MT1-MMP act inh 6, CSC inhib -9 and MT1-MMP act inh RFP 0.
`O=C(c1ccc(Cl)cc1)[C@@H]1[C@@H]2C(=O)N(c3ccccc3)C(=O)[C@@H]2C2c3ccccc3C=NN21` (stereo not given in full) gave Env fusion inh -12, eIF4H inh -2, Yeast UUG start -4, Rce1 inhib inactive, PABP polyA inh 4, MT1-MMP act inh -11, CSC inhib 4 and MT1-MMP act inh RFP 3.
Screening Cc1csc(CN(C)C(=O)CC2C(=O)NCCN2Cc2ccc(F)cc2Cl)n1 (stereo not given) returned Env fusion inh 3, eIF4H inh 6, Rce1 inhib inactive, PABP polyA inh 6, MT1-MMP act inh -3, CSC inhib -10 and MT1-MMP act inh RFP 6.
For O=C(c1ccc(OC2CCN(C/C=C/c3ccccc3)CC2)cc1)N1CCCC1 the results were Env fusion inh 9, eIF4H inh -7, Yeast UUG start -6, Rce1 inhib inactive, PABP polyA inh 7, MT1-MMP act inh -2, CSC inhib 5 and MT1-MMP act inh RFP -1.
Screening CC(C)N(Cc1nccn1C)C(=O)CC1C(=O)NCCN1Cc1ccccc1C(F)(F)F (stereo not given) returned Env fusion inh -6, eIF4H inh -4, Yeast UUG start 0&1, Rce1 inhib inactive, PABP polyA inh 4, MT1-MMP act inh -6, CSC inhib -9 and MT1-MMP act inh RFP 3.
`CCc1ccc(N2CN(CCc3ccccc3)CNC2=S)cc1` gave Env fusion inh 11, eIF4H inh 5, Yeast UUG start -29, Rce1 inhib inactive, PABP polyA inh 7, MT1-MMP act inh 1, CSC inhib 1 and MT1-MMP act inh RFP -1.
For COc1ccc(-n2nc(C(=O)NCC(=O)Nc3cccc(C)n3)c3ccccc3c2=O)cc1 the results were Env fusion inh 17, eIF4H inh -6, Yeast UUG start -27, Rce1 inhib inactive, PABP polyA inh 3, MT1-MMP act inh -2, CSC inhib -11 and MT1-MMP act inh RFP -5.
`COc1cc(-c2n[nH]c(=S)n2/N=C/c2cccn2C)cc(OC)c1OC` gave Env fusion inh 0, eIF4H inh -2, Rce1 inhib inactive, PABP polyA inh 2, MT1-MMP act inh 1, CSC inhib -20 and MT1-MMP act inh RFP -6.
COc1ccccc1NC(=O)COC(=O)c1ccc(S(=O)(=O)NCc2ccco2)cc1 was read as eIF4H inh 4, Yeast UUG start 8, Rce1 inhib inactive, PABP polyA inh 4, MT1-MMP act inh -3, CSC inhib -6 and MT1-MMP act inh RFP 0.
For CCOc1ccc(OCC)c(NC(=O)CN2CCN(c3ccc(C)cc3C)CC2)c1 the results were Env fusion inh 34, eIF4H inh -1, Yeast UUG start 22, Rce1 inhib inactive, PABP polyA inh -10, MT1-MMP act inh -3, CSC inhib 66 and MT1-MMP act inh RFP -4.
`CC1(C)CC(=O)C=C(NCCN2CCN(C(=O)Nc3ccc(Cl)c(Cl)c3)CC2)C1` gave eIF4H inh -6, Yeast UUG start 3, Rce1 inhib inactive, PABP polyA inh 5, MT1-MMP act inh 5, CSC inhib -2 and MT1-MMP act inh RFP 4.
COc1cccc(/C(O)=C2/C(=O)C(=O)N(c3ccccn3)C2c2ccc(OC)c(OC)c2)c1 (stereo not given) was read as Env fusion inh -31, eIF4H inh -3, Yeast UUG start -12, Rce1 inhib inactive, PABP polyA inh 6, MT1-MMP act inh 2, CSC inhib -3 and MT1-MMP act inh RFP 2.
For CC(C)c1ccc(S(=O)(=O)c2nnn3c2nc(NCC2CCCO2)c2ccccc23)cc1 (stereo not given) the results were eIF4H inh -2, Yeast UUG start -13, Rce1 inhib inactive, PABP polyA inh 37, MT1-MMP act inh 3, CSC inhib -5 and MT1-MMP act inh RFP 3.
`O=C(NNC(=O)c1cccnc1Cl)c1ccc(F)cc1` gave Env fusion inh -6, eIF4H inh -21, Yeast UUG start -22, Rce1 inhib inactive, PABP polyA inh -10, MT1-MMP act inh -4, CSC inhib -9 and MT1-MMP act inh RFP -2.
Cc1[nH]n(-c2ccccc2)c(=O)c1C=NC1CCCCC1 was read as Env fusion inh 12, eIF4H inh 5, Yeast UUG start -5, PABP polyA inh -15, MT1-MMP act inh -1, CSC inhib 4 and MT1-MMP act inh RFP 0.
CCC(=O)Nc1nnc(SCc2cccc(F)c2)s1 was read as Env fusion inh 1, eIF4H inh -11, Rce1 inhib inactive, PABP polyA inh -4, MT1-MMP act inh 2 and MT1-MMP act inh RFP -1.
`O=[N+]([O-])c1cnccc1Nc1ccccc1` gave Env fusion inh -11, eIF4H inh 7, Rce1 inhib inactive, PABP polyA inh 4, MT1-MMP act inh -8, CSC inhib -18 and MT1-MMP act inh RFP -2.
`O=C(CCNS(=O)(=O)c1ccc(Br)cc1)NCC1CCCO1` (stereo not given) gave Env fusion inh 5, Yeast UUG start -8, MT1-MMP act inh 0 and MT1-MMP act inh RFP 1.
C=CCn1c(-c2ccccc2)nc(=S)c2c1CC(C)(C)OC2 was read as Env fusion inh -64, eIF4H inh -4, Yeast UUG start -5, Rce1 inhib inactive, PABP polyA inh 2, MT1-MMP act inh 2, CSC inhib 11 and MT1-MMP act inh RFP 5.
`COc1cc(OC)c(/C=N/NC(=O)c2ccc(Cn3nc([N+](=O)[O-])cc3C)cc2)c(OC)c1` gave Env fusion inh -21, eIF4H inh -2, Rce1 inhib inactive, PABP polyA inh -4 and CSC inhib -6.
Screening CC(=O)N1CCC(C(=O)Nc2ccc(S(=O)(=O)NCCc3ccccc3)cc2)CC1 returned Env fusion inh 12, eIF4H inh 15, Yeast UUG start -20, Rce1 inhib inactive, PABP polyA inh 9, MT1-MMP act inh 7, CSC inhib -15 and MT1-MMP act inh RFP 4.
Screening Cc1nc(-c2cc(-c3nc(-c4ccc(C(C)(C)C)cc4)no3)no2)cs1 returned Env fusion inh 6, eIF4H inh -6, Rce1 inhib inactive, PABP polyA inh 8, MT1-MMP act inh 2, CSC inhib 48 and MT1-MMP act inh RFP -8.
`COc1ccccc1/C=N/Nc1nc(C)c(C(C)=O)s1` gave Env fusion inh -85, Yeast UUG start -20, Rce1 inhib inactive, MT1-MMP act inh -7, CSC inhib -1 and MT1-MMP act inh RFP 1.
CCOc1cccc(C(=O)Nc2cccc(C(C)=O)c2)c1 was read as Env fusion inh -26, eIF4H inh 3, Yeast UUG start -9, Rce1 inhib inactive, PABP polyA inh 11, MT1-MMP act inh 7, CSC inhib -13 and MT1-MMP act inh RFP 1.
C=CC[C@@H](CC(=O)NCCO)C(=O)N[C@H](C)COC(=O)[C@@H](CC=C)CC(=O)OC(C)(C)C was read as Env fusion inh -7, Yeast UUG start 20, MT1-MMP act inh 0, CSC inhib -11 and MT1-MMP act inh RFP 3.
COc1ccc(C(CNC(=O)c2cc(S(=O)(=O)NCc3ccccc3)ccc2C)N2CCOCC2)cc1 (stereo not given) was read as Env fusion inh -18, Yeast UUG start -15, Rce1 inhib inactive, MT1-MMP act inh 0, CSC inhib -2 and MT1-MMP act inh RFP -2.
For CC1(C(=O)Nc2ccc3c(c2)OCO3)CCN1Cc1cccc2c1OCO2 (stereo not given) the results were Env fusion inh 40, Yeast UUG start -9, MT1-MMP act inh -3 and MT1-MMP act inh RFP -7.

4 records drawn at random from those above, as already listed:
COc1ccc(C(CNC(=O)c2cc(S(=O)(=O)NCc3ccccc3)ccc2C)N2CCOCC2)cc1 (stereo not given) was read as Env fusion inh -18, Yeast UUG start -15, Rce1 inhib inactive, MT1-MMP act inh 0, CSC inhib -2 and MT1-MMP act inh RFP -2.
`O=C(NNC(=O)c1cccnc1Cl)c1ccc(F)cc1` gave Env fusion inh -6, eIF4H inh -21, Yeast UUG start -22, Rce1 inhib inactive, PABP polyA inh -10, MT1-MMP act inh -4, CSC inhib -9 and MT1-MMP act inh RFP -2.
COc1cccc(/C(O)=C2/C(=O)C(=O)N(c3ccccn3)C2c2ccc(OC)c(OC)c2)c1 (stereo not given) was read as Env fusion inh -31, eIF4H inh -3, Yeast UUG start -12, Rce1 inhib inactive, PABP polyA inh 6, MT1-MMP act inh 2, CSC inhib -3 and MT1-MMP act inh RFP 2.
Cc1cc(C)nc(SC2CCCCC2NS(=O)(=O)c2ccccc2)n1 (stereo not given) was read as Env fusion inh 0, eIF4H inh -3, Rce1 inhib inactive, PABP polyA inh 15, MT1-MMP act inh 3 and MT1-MMP act inh RFP 6.

Screening data deposited in PubChem BioAssay by several laboratories.

These rows are one share of the data, so the mix of outcomes need not match the whole.
